AID923: qHTS Assay for Allosteric/Competitive Inhibitors of Caspase-1: Spectroscopic Profiling in AFC Spectral Region. compound fluorescence, AFC spectral region (405/520 nm); almost no hit is shown here. actives 1.1% (n = 75,000). AID 923, 2007. Potency, µM (titrated, usually from 57.5 µM), without a hit: at the top dose fluorescence increase, actives largely listed as activators; active = well fitted activation curve with a large enough effect;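 also: 0% is about no effect; scaled to a free AFC standard on each plate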
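Compound autofluorescence profiled at 405 nm ex/520 nm em during kinetic caspase 1 run (50 nM enzyme, 5 uM Ac-WEHD-AFC, HEPES pH 7.5, 10 mM DTT). Titration up to 57 uM; baseline from regression intercept, normalized to AFC standard curve.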
Numbers without * were called inactive. Potency is read from the fitted curve at half-maximal effect. This is a subset. The share of hits here may be higher or lower than overall.

Preview, 3 compounds:
How did O=C(O)c1cc(=O)c2ccccc2o1 do in these assays?
AID923: -2.0%

How did COc1ccc(-c2cc(C(F)F)nn2-c2ccc(S(N)(=O)=O)cc2)cc1F do in these assays?
AID923: -0.3%

What do the screens show for `CC1CCC2(C(=O)O)CCC3(C)C(=CCC4C3(C)CCC3[C@@]4(C)CC(O)C(O)[C@@]3(C)CO)C2C1C` (some centres not stated)?
AID923: -1.5%

The list itself (from the top)
How did O=C(O)c1cc(=O)c2ccccc2o1 do in these assays?
AID923: -2.0%

How did COc1ccc(-c2cc(C(F)F)nn2-c2ccc(S(N)(=O)=O)cc2)cc1F do in these assays?
AID923: -0.3%

What do the screens show for `CC1CCC2(C(=O)O)CCC3(C)C(=CCC4C3(C)CCC3[C@@]4(C)CC(O)C(O)[C@@]3(C)CO)C2C1C` (some centres not stated)?
AID923: -1.5%

Results for Cc1ccccc1OCC(O)CO (configuration not stated) ?
AID923: -0.3%

How did CCC1OC(=O)C[C@H](O)C(C)[C@@H](O[C@@H]2OC(C)C(O)C(N(C)C)C2O)C(CCN2CC(C)CC(C)C2)CC(C)C(=O)/C=C/C(C)=C\[C@@H]1COC1OC(C)C(O)C(OC)C1OC (some centres not stated) do in these assays?
AID923: 0.7%

How did CC(Cc1cccc(C(F)(F)F)c1)NCCOC(=O)c1ccccc1 (configuration not stated) do in these assays?
AID923: -2.1%

How did CN[C@@H]1[C@H](O)[C@H](NC)[C@H]2O[C@@]3(O)C(=O)C[C@@H](C)O[C@H]3O[C@@H]2[C@H]1O do in these assays?
AID923: -0.5%

Results for CCn1cc(C(=O)O)c(=O)c2cc(F)c(N3CCNC(C)C3)c(F)c21 (configuration not stated) ?
AID923: 2.0%

Ordered by length of the SMILES (falling): 3 of the compounds above.
How did CCC1OC(=O)C[C@H](O)C(C)[C@@H](O[C@@H]2OC(C)C(O)C(N(C)C)C2O)C(CCN2CC(C)CC(C)C2)CC(C)C(=O)/C=C/C(C)=C\[C@@H]1COC1OC(C)C(O)C(OC)C1OC (some centres not stated) do in these assays?
AID923: 0.7%

How did CC(Cc1cccc(C(F)(F)F)c1)NCCOC(=O)c1ccccc1 (configuration not stated) do in these assays?
AID923: -2.1%

Results for Cc1ccccc1OCC(O)CO (configuration not stated) ?
AID923: -0.3%
